Bioassay records: PubChem, several laboratories
E coli growth = E. coli growth inhibition | AID 1053175 | 330,000 tested, 0.21% active | OD600 absorbance (concentration not given with the values) | Escherichia coli growth, OD600, 23 h; stronger effect = lower value;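 active = OD600 absorbance below the run mean of sample wells minus 3.6 SD, in any replicate, cut at about 0.56 in these data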;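 note: stock transfer was 300 nL into about 60 µL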
LANA-H2B inh = blocks KSHV LANA binding to histone H2A/H2B; Q9QR71; inhibition, % (test concentration not listed); cell-free LANA-H2A/H2B peptide, fluorescence polarization; 320,000 tested, 0.6% active; AID 2629; in the data active = inhibition mostly above about 10%, no sharp cut-off; inactive = mostly below about 6.7%;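 note: stock transfer was 7.5 nL into about 10 µL; 0% = median of vehicle wells and 100% = median of positive control wells; one replicate is shown; the record names a cut of 25% in any replicate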
HNF4A DNA FP = change in binding of human HNF4 alpha to DNA. HNF4a-FITC DNA binding, fluorescence polarization, 1 h. activity change, % at 10 µM. 360,000 tested, 0.3% active; in the data active = activity change above about 30%, passing the limit was not always enough;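 note: controls were the assay level and a saturating level of protein; the project sought stronger binding though the title names inhibitors; some compounds called inactive have numbers as strong as hits; positive values seem to mean higher polarization but the record does not say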
ALR H2O2 inh = blocks human ALR sulfhydryl oxidase activity | P55789 | purified ALR, DTT oxidation, H2O2 HRP-luminol luminescence | inhibition, % (test concentration not listed) | 290,000 tested, 3.8% active;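 active = mean and each replicate at 75% or more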;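 note: stock transfer was 7.5 nL into about 7.5 µL; 0% = neutral wells and 100% = wells with inactivated enzyme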
Beta2AR agonist = agonists of human beta-2 adrenergic receptor inducing internalization. response, % (test concentration not listed). AID 504454. Am2.2-beta2AR cells, FAP receptor internalization, flow cytometry; reference of the scale not given here. 340,000 tested, 0.43% active. P07550;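 active = response above a set limit, near 3 SD of response in nonfluorescent compounds, cut at about 42% in these data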;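 note: stock transfer was 100 nL into about 11 µL; a reference agonist was the positive control; negative values mostly stem from fluorescent compounds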
FGF22 binding = binders of recombinant human FGF22 by thermal shift; 340,000 tested, 1.5% active; Q9HCT0; calls only at 9.99 µM; AID 651658; SYPRO orange fluorescence; percent of sucrose octasulfate shift, DMSO zero;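 active = melting point raised past a set limit in the mean and every replicate; three in four hits are not shown here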
Target sequence (Q9HCT0 whole entry, looked up): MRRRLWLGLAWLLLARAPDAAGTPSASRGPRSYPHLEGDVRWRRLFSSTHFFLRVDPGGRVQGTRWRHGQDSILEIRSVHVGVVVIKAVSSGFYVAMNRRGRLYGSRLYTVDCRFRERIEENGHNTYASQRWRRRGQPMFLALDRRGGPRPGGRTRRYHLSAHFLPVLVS
UCH37 DUB inh = blocks the human deubiquitinase UCH37 | 330,000 tested, 0.33% active | Q9Y5K5 | inhibition, % (no concentration beside the values) | purified proteasome/UCH37, Ub-AMC cleavage fluorescence;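 active = mean of two replicates above 20%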;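 note: 0% = compound-free wells with enzyme and 100% = wells lacking proteasome; stock transfer was 100 nL into about 20 µL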
Target sequence (Q9Y5K5 whole entry, looked up): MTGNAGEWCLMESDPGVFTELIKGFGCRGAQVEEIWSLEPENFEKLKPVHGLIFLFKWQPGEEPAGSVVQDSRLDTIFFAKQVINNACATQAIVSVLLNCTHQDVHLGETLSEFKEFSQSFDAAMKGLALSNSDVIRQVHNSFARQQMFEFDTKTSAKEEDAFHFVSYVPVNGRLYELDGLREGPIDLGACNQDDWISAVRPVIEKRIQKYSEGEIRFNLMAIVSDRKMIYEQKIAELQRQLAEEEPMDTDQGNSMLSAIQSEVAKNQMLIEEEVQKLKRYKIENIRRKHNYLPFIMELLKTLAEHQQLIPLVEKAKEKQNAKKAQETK
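Schedule: 30 min plus 25 min, room temperature / Material: human UCH37 within purified proteasomes / Technique: AMC fluorescence intensity at 355/460 nm / Buffer or medium: pH 7.4 Tris-HCl (50 mM) with ovalbumin, ATP-MgCl2, DTT / Controls: wells without proteasome as full block, compound-free enzyme plus substrate as uninhibited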
Active calls of the source: *; i = inactive; nt = no result given. Only part of the results is shown (hit frequency here may not be typical).

SMILES | E coli growth | LANA-H2B inh | HNF4A DNA FP | ALR H2O2 inh | Beta2AR agonist | FGF22 binding | UCH37 DUB inh
NC(=O)CN1C2CCC1CC(NC(=O)C1CC1)C2 (stereo not given) | 0.65 | 0.6 | 2.8 | -4 | -3 | nt | 1.6
O=C1CC(c2cccnc2)=NN1c1ccc(Cl)cc1Cl | 0.67 | 1.3 | -2.1 | 24 | 3 | i | -1.1
CC12CC[C@H]3[C@@H](CCC4(O)C[C@H](O)CCC34/C=N/NC(=O)c3ccccc3F)C1(O)CCC2C1=CC(=O)OC1 (stereo not given in full) | nt | -3.4 | 5.2 | -7 | 8 | i | nt
Clc1ccc(Cn2ccnc2)cn1 | 0.71 | -6.4 | -2.2 | -10 | -7 | nt | -2.4
COc1ccc(NC(=O)N2CCC3(CC2)OCCO3)cc1 | 0.7 | 0.9 | 1.6 | -25 | 0 | i | -1.0
CN(C)CCN(CC1CCCN(Cc2ccccc2F)C1)C(=O)Cc1ccccc1F (stereo not given) | 0.7 | 0.8 | 0.8 | -2 | 11 | i | 4.3
COC(=O)c1ccc(N=C(c2ccccc2)c2c(O)n(C)c(=O)n(C)c2=O)cc1 | 0.6 | -1.3 | 0.9 | nt | -13 | i | 6.9
CCCCn1c(N)c(C(=O)NCc2cccs2)c2nc3ccccc3nc21 | 0.74 | -5.9 | 4.0 | -18 | 1 | nt | -355
C=Cc1cc(OC)c2c(c1)c(=O)oc1c2cc(OC)c2c(O)ccc(C3OC(C)C(O)C(C)(O)C3O)c21 (stereo not given) | nt | nt | -62 | nt | 17 | i | nt
CN(C)C(=O)On1c(-c2ccccc2)nc2ccc(Cl)cc21 | 0.68 | 2.4 | 0.8 | -20 | 0 | nt | -0.8
CCn1c(=N)n(Cc2ccccc2F)c2ccccc21 | 0.63 | 5.1 | 3.6 | -7 | 7 | nt | 4.6
COc1ccccc1-n1c(-c2ccccc2F)nc2ccccc2c1=O | 0.64 | -6.4 | 5.7 | -3 | -11 | i | 3.4
CN1CCN(c2ccc([N+](=O)[O-])c(NCC3CCCO3)c2)CC1 (stereo not given) | 0.67 | -5.6 | 1.1 | -4 | -1 | nt | 11
CN(C)c1ccc(/C=C/[N+](=O)[O-])cc1 | 0.61 | -2.3 | 1.1 | 98* | 36 | i | 3.6
O=C1COc2ccc(C(=O)COC(=O)Cc3ccccc3)cc2N1 | 0.69 | 3.1 | 4.3 | -2 | -1 | i | 4.4
COc1ccc(Nc2ncc(C(=O)N3CCC4(CC3)OCCO4)c3ccccc23)cc1 | 0.68 | 0.6 | 0.0 | -24 | -15 | nt | 5.8
COC(=O)C1=C(c2ccc(-c3ccccc3)c(F)c2)C[C@@H]2CC[C@H]1N2C(=O)NCc1cccc2ccccc12 | nt | -2.3 | 1.5 | 2 | -3 | i | 3.2
O=P(NC(c1ccccc1)c1ccccc1)(Oc1ccccc1)Oc1ccccc1 | 0.72 | 7.1 | 3.0 | 2 | 11 | nt | 0.0
CSc1ccc(CN2CCN(C(=O)COc3ccc(C)cc3)CC2)cc1 | 0.64 | -2.8 | 3.7 | -3 | 0 | nt | 0.6
O=C1NC(=O)N(c2ccccc2)C(=O)/C1=C\c1ccc([N+](=O)[O-])s1 | 0.51 | -2.8 | nt | -3 | -25 | i | 14

2 entries picked at random from the list so far:
SMILES | E coli growth | LANA-H2B inh | HNF4A DNA FP | ALR H2O2 inh | Beta2AR agonist | FGF22 binding | UCH37 DUB inh
CC12CC[C@H]3[C@@H](CCC4(O)C[C@H](O)CCC34/C=N/NC(=O)c3ccccc3F)C1(O)CCC2C1=CC(=O)OC1 (stereo not given in full) | nt | -3.4 | 5.2 | -7 | 8 | i | nt
O=C1COc2ccc(C(=O)COC(=O)Cc3ccccc3)cc2N1 | 0.69 | 3.1 | 4.3 | -2 | -1 | i | 4.4

(more compounds)
SMILES | E coli growth | LANA-H2B inh | HNF4A DNA FP | ALR H2O2 inh | Beta2AR agonist | FGF22 binding | UCH37 DUB inh
CC1CCN(C(=O)c2ccc(N3CC4CC(C3)c3cccc(=O)n3C4)c([N+](=O)[O-])c2)CC1 (stereo not given) | 0.67 | 2.2 | 4.2 | -4 | nt | nt | 2.4
Cc1ccc2c(c1)C(c1ccccc1)=NCC(=O)N2C | 0.64 | 2.5 | 2.2 | -9 | 0 | i | 6.1
CC(NC1=NCCS1)c1ccccc1 (stereo not given) | 0.68 | -7.1 | -4.8 | -16 | 1 | i | 4.9
COc1ccc2c(C)c(CCC(=O)N3C[C@H]4C[C@@H](C3)c3cccc(=O)n3C4)c(=O)oc2c1 | 0.7 | 3.8 | -5.8 | -10 | 3 | i | -140
COC(=O)C(O)(c1ccc(N(C)C)cc1)C(F)(F)F (stereo not given) | 0.67 | -5.1 | -2.5 | 1 | 4 | i | 3.1

Nothing new here: entries from further up.
SMILES | E coli growth | LANA-H2B inh | HNF4A DNA FP | ALR H2O2 inh | Beta2AR agonist | FGF22 binding | UCH37 DUB inh
CCn1c(=N)n(Cc2ccccc2F)c2ccccc21 | 0.63 | 5.1 | 3.6 | -7 | 7 | nt | 4.6
COc1ccccc1-n1c(-c2ccccc2F)nc2ccccc2c1=O | 0.64 | -6.4 | 5.7 | -3 | -11 | i | 3.4
CN1CCN(c2ccc([N+](=O)[O-])c(NCC3CCCO3)c2)CC1 (stereo not given) | 0.67 | -5.6 | 1.1 | -4 | -1 | nt | 11
CN(C)c1ccc(/C=C/[N+](=O)[O-])cc1 | 0.61 | -2.3 | 1.1 | 98* | 36 | i | 3.6
O=C1COc2ccc(C(=O)COC(=O)Cc3ccccc3)cc2N1 | 0.69 | 3.1 | 4.3 | -2 | -1 | i | 4.4
COc1ccc(Nc2ncc(C(=O)N3CCC4(CC3)OCCO4)c3ccccc23)cc1 | 0.68 | 0.6 | 0.0 | -24 | -15 | nt | 5.8
COC(=O)C1=C(c2ccc(-c3ccccc3)c(F)c2)C[C@@H]2CC[C@H]1N2C(=O)NCc1cccc2ccccc12 | nt | -2.3 | 1.5 | 2 | -3 | i | 3.2
O=P(NC(c1ccccc1)c1ccccc1)(Oc1ccccc1)Oc1ccccc1 | 0.72 | 7.1 | 3.0 | 2 | 11 | nt | 0.0
CSc1ccc(CN2CCN(C(=O)COc3ccc(C)cc3)CC2)cc1 | 0.64 | -2.8 | 3.7 | -3 | 0 | nt | 0.6
O=C1NC(=O)N(c2ccccc2)C(=O)/C1=C\c1ccc([N+](=O)[O-])s1 | 0.51 | -2.8 | nt | -3 | -25 | i | 14
CC1CCN(C(=O)c2ccc(N3CC4CC(C3)c3cccc(=O)n3C4)c([N+](=O)[O-])c2)CC1 (stereo not given) | 0.67 | 2.2 | 4.2 | -4 | nt | nt | 2.4
Cc1ccc2c(c1)C(c1ccccc1)=NCC(=O)N2C | 0.64 | 2.5 | 2.2 | -9 | 0 | i | 6.1
